Cruzain Triton: cruzain (T. cruzi) inhibition with detergent; Potency, µM, for inactives: max response, negative = inhibition, hits mostly inhibitors; actives 0.43% (n = 200,000); purified cruzain, Z-FR-AMC fluorescence, 0.01% Triton;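 also: plate controls were neutral wells for no effect and buffer without enzyme for full effect; nearly all actives have a fitted effect of over 40% in size; top concentration of the series not given in the record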
Target sequence (P25779 123-467 limits assumed): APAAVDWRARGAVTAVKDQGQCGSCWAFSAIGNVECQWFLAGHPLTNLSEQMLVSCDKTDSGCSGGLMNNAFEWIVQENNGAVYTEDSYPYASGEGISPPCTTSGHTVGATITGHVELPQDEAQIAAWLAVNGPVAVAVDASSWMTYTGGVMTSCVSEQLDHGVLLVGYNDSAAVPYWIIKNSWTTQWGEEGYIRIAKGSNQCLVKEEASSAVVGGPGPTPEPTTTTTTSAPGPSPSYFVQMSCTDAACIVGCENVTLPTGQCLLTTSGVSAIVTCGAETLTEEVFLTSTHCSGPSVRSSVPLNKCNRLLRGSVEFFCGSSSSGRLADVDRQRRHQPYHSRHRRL
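Read-out: AMC fluorescence (360 nm excitation, 450 nm emission), four reads over 2 min, first-to-third difference used. Conditions: cruzain 1.5 nM, Z-FR-AMC 2 uM, pH 5.5 acetate, 5 mM DTT, 0.01% Triton X-100.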
NS1 inh: influenza NS1 inhibition; actives 0.4% (n = 270,000); Potency, µM (top dose mostly 46.1 µM), inactives show at the highest dose activity, positive = more growth; S. cerevisiae slowed by influenza A NS1, growth recovery by OD600; AID 2326; active means well fitted rising curve with a large enough effect; inconclusive means small, poorly fitted or top-dose-only effect; inactive means no such curve, though single readings can be large or run the other way; also: nearly all actives have a fitted effect of over 50% in size
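S. cerevisiae expressing influenza A NS1, grown in glucose, washed, then diluted 1:100 into pH 6.0 -URA galactose medium with 23 nl compound. Growth recovery read as OD600; NS1-free strain serves as control.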
Cruzain noTriton: cruzain (T. cruzi) inhibition without detergent; purified cruzain, Z-FR-AMC fluorescence, no detergent; P25779; actives 2.3% (n = 200,000); AID 1476; Potency, µM, for the others: max response, negative = inhibition, most hits filed as inhibitors;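 also: plate controls were enzyme without inhibitor for no effect and buffer without enzyme for full effect; nearly all actives have a fitted effect of over 40% in size; top concentration of the series not given in the record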
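Detergent-free condition (0.00005% Triton X-100) in acetate buffer pH 5.5 with DTT. 1.5 nM enzyme and compound were pre-mixed 15 min, then 2 uM Z-FR-AMC substrate added; reaction progress from fluorescence change between first and third reads (60 s).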
The depositor's hits bear a star; u = inconclusive. Unless noted, calls follow the shape of the dose curve; as a rule, active = well fitted curve in the direction sought with a large enough effect; inconclusive = small, poorly fitted or top-dose-only effect, or another doubt; inactive = no such curve, though single readings can be large; an effect the other way counts as inactive or inconclusive. Potency is read from the fitted curve at half-maximal effect.

mol	Cruzain Triton	NS1 inh	Cruzain noTriton
O=C(O)c1nnsc1-c1ccc(-c2snnc2C(=O)O)cc1	1.1%	-16%	-1%
NS(=O)(=O)c1ccc(N=Nc2cc3ccccc3c(C(=O)O)c2O)cc1	-1.4%	8%	-8%
CN1CCN(Cc2nc3cccc4c3c([n+]2[O-])-c2ccccc2-4)CC1	1.5%	-7%	-8%
O=C(O)CCCCn1ccc(=O)[nH]c1=O	0.4%	1%	-1%
CC(C)(CC(=O)Nc1ccccc1)C(=O)O	1.5%	-1%	-2%
CC(C)=N[C@H](C(=O)O)C(C)(C)S	0.3%	-4%	5%
COC(=O)[C@@H]1O[C@@H](SCCN)[C@@H](O)[C@H](O)[C@H]1O	2.5%	-3%	-7%
C[C@@]12CC[C@@H]3[C@H](CCC4=CC(=O)CC[C@]43C)[C@@H]1CC[C@@H]2C(=O)Cn1cnc2c(=S)nc[nH]c21	3.2%	u	-7%
COc1cc2nncc(SCc3ccc(Cl)c(Cl)c3)c2cc1OC	1.9%	-8%	-2%
Cc1c(O)c(Br)c(C)c(O)c1Br (tested in a mixture with another compound)	-5.1%	-36%	-6%
O=[As](O)(O)c1ccc2nc3cc([As](=O)(O)O)ccc3nc2c1	-2.7%	-3%	5%
Clc1ccccc1C(Nc1cnccn1)Nc1cnccn1	5.3%	-3%	8%
O=C(O)c1cc(-c2ccc(-c3ccccc3)cc2)nc2cc3ccccc3cc12	-6.2%	-8%	-6%
NC(N)=NCCN=C(N)N	1.1%	1%	8%
O=C1CSC2(CCN(CCCN3c4ccccc4Sc4ccc(Cl)cc43)CC2)N1	-3.8%	0%	-5%
CC[C@@H]1[C@@H]2Cc3ccc(O)cc3[C@@]1(CC)CCN2C	-0.3%	-5%	-4%
Nc1ccc2[nH]cc(CCC(=O)O)c2c1	-3.8%	3%	-1%
NC(=[SH+])N=N/C=C1/C=CC=CN1.O=S(=O)(O)O.[Fe]	-1.8%	5%	3%
CCCc1cc(COC)c(C#N)c(=O)[nH]1	-3.2%	0%	2%
CN(C)CCN1C(=O)CC[C@]2(C)C1=CC[C@@H]1[C@@H]2CC[C@]2(C)[C@H]1CC[C@]2(C)O	0.5%	11%	-10%
C[C@@]12CCC(=O)C=C1CC[C@H]1C2[C@@H](O)C[C@]2(C)[C@@H]1CC[C@@]2(O)C(=O)COC(=O)C1CCCC1 (stereo partly drawn)	1.5%	2%	-4%
NNS(=O)(=O)c1cc(C(=O)O)cc(C(=O)O)c1	0.7%	-7%	3%
Nc1cc2c(nc3c4ccccc4c(N)cc3[n+]2-c2cccc3ccccc23)c2ccccc12 (tested in a mixture with another compound)	0.3%	-15%	1.3µM*
O=C(O)C(F)(F)C(F)(F)C(F)(F)C(F)(F)C(=O)O	9.3%	8%	-2%
CC(CC(=O)O)(CC(=O)O)C(=O)O	-0.5%	-2%	3%
CC1(CC(=O)O)O[C@H]2CCCCC[C@H]2O1 (stereo partly drawn) (tested in a mixture with another compound)	16%	0%	1%
Cc1ccn2c(CCc3nnc4cc(C)ccn34)nnc2c1	3.0%	0%	5%
C/C(C[n+]1ccccc1)=N\N=C(N)N	6.4%	-6%	3%
CN(C)CCCN=c1c2ccccc2n(C)c2[nH]c(=O)n(C)c(=O)c12	1.2%	-5%	0%
O=C1/C(=C/c2ccccc2)[C@@H](NC2CCCCC2)c2ccccc21	2.7%	-45%	-10%
O=C(O)Cc1cc(Cl)ccc1O	2.6%	0%	4%
Cc1cc(Cl)nc(NC(=O)CSc2ccc(Cl)cc2)n1	-6.4%	-3%	-1%
C[C@@H]1CC[C@@H]2N(C1)C[C@H]1[C@@](O)([C@H](O)C[C@]3(O)[C@H]4CC[C@H]5[C@]6(O)O[C@]4(C[C@]13O)[C@@]5(C)CC[C@@H]6O)[C@@]2(C)O	-0.2%	-5%	3%
O=C(O)c1cccc(C(=O)O)c1S(=O)Cc1ccccc1 (stereo not drawn)	1.4%	-2%	8%
O=C1C=C(Nc2nc(C(=O)O)cc(=O)[nH]2)c2ccccc2C1=O	-4.7%	-2%	-3%
COc1ccc2c(c1)[N+](=O)C(/C(C)=N/NC(N)=S)=C(C)[N+]2=O	-7.1%	0%	-1%
O=C(O)c1cc(C(=O)O)nc(C(=O)O)c1	6.9%	5%	5%
CN(C)CCCN1c2ccccc2Sc2cnccc21	2.6%	-8%	3%
Cc1cc(C)nc(SCCc2cccc[n+]2C)n1	2.1%	2%	2%
CC(C)[C@H](Sc1nc(N)nc2nc[nH]c12)C(=O)O	4.7%	-4%	-4%
CC(C)(C[C@@]1(C)NC(=O)NC1=O)OCc1ccccc1	3.3%	0%	1%
O=S(=O)(O)c1ccc(NN(c2c(O)ccc3ccccc23)S(=O)(=O)O)cc1	-13%	8%	2%
O=C(O)c1c(Br)c(Br)c(Br)c(Br)c1C1c2ccc(O)cc2Oc2cc(O)ccc21	4.4%	u	23%
Cc1c(Cl)c(S(N)(=O)=O)cc2c1=NC=NS=2(=O)O	1.9%	0%	9%
Cc1cc(SCC(=O)c2ccc(Br)cc2)cc(C)[o+]1	-3.8%	-10%	u
NCCOC[C@H](N)C(=O)O	3.0%	-6%	3%
C=CC[C@@H](C(=O)O)c1ccccc1	2.1%	-7%	4%
C[C@@]1(CCOCc2ccccc2)NC(=O)NC1=O	-6.6%	-3%	-3%
CC(C)[C@H](N=Cc1ccccc1O)C(=O)O	-0.2%	0%	6%
N[C@@H](CSC1(c2ccc(Cl)cc2)c2ccccc2-c2ccccc21)C(=O)O	-4.2%	13%	1%

Further entries
mol	Cruzain Triton	NS1 inh	Cruzain noTriton
Cc1cc([N+](=O)[O-])c(C)c(Br)c1C	2.4%	1%	4%
Nc1ncnc2nc(-c3ccc(C[P+](c4ccccc4)(c4ccccc4)c4ccccc4)cc3)[nH]c12	-3.7%	-4%	-10%
O=C(O)CNC(=O)[C@H]1NC(C(F)(F)F)(C(F)(F)F)OC1(C(F)(F)F)C(F)(F)F	-2.4%	-6%	3%
C[C@@H]1CCCN(C[C@@H](O)CN2CCCc3ccccc32)C1	5.3%	-3%	-11%
Cc1cc(=O)[nH]c(/N=C(\N)Nc2ccc(Cl)cc2)n1	-0.9%	-1%	-8%
CC(C)C(=O)CP(=O)(O)O	-0.9%	-6%	6%
Cc1ccc(SCN2CCCCC2)cc1 (tested in a mixture with another compound)	1.7%	-11%	-18%
O=C(O)C/C(=C\c1ccccc1)C(=O)O	3.3%	-2%	2%
Oc1ccc(Cc2cc(Cl)cc(Cl)c2O)cc1Cl	-6.2%	-42%	-8%
Nc1nc(N)c(Cn2ccnc2)c(=O)[nH]1	-2.6%	-4%	12%
O=C(O)c1c[nH]c2cc(OCc3ccccc3)ccc2c1=O	4.3%	u	5%
O=C(O)[C@@H]1[C@@H](C(=O)Nc2ncccn2)[C@@H]2C=C[C@@H]1O2	4.8%	-3%	-4%
O=C(O)[C@H]1C2c3ccccc3C(c3ccccc32)[C@@H]1C(=O)NCC1CC1	-3.0%	-9%	-3%
O=C(O)C[C@@H](C(=O)O)C1c2ccccc2-c2ccccc21	-0.4%	0%	0%
O=C(N/N=C\c1cccc(O)c1)c1ccncc1	-0.2%	-4%	5%
Cc1c(C(=O)O)nc(/C=C\C(=O)O)[nH]c1=O	-1.8%	-2%	-1%
Cn1c(=S)c2[nH]c(SCCCc3ccccc3)nc2n(C)c1=O	-2.3%	-20%	-6%
O=C1CSC(=S)N1/N=C\c1ccc(Cl)c([N+](=O)[O-])c1	-17%	17%	-24%
Cc1ccc(N2CCN(CCC(=O)O)CC2)cc1	1.0%	3%	9%
COc1cccc(CSCC(=O)O)c1	-2.6%	4%	-2%

Reformatted as labelled records: entries from further up.
O=C(O)C[C@@H](C(=O)O)C1c2ccccc2-c2ccccc21
  Cruzain Triton: -0.4%
  NS1 inh: 0%
  Cruzain noTriton: 0%

O=C(N/N=C\c1cccc(O)c1)c1ccncc1
  Cruzain Triton: -0.2%
  NS1 inh: -4%
  Cruzain noTriton: 5%

Additional structures:
mol	Cruzain Triton	NS1 inh	Cruzain noTriton
N[C@@]1(C(=O)O)CCC[C@@H]1C(=O)O	2.8%	-1%	2%
CN(C)CCCc1c2ccccc2nc2ccc(Cl)cc12	-2.1%	-10%	3%
CCON=C1C(C)(C)C(C)(C)C(C)(C)C1(C)C	4.0%	0%	2%
CN(C)CCCNc1ncnc2nc[nH]c12	1.9%	3%	4%
O=C(O)[C@@H]1[C@@H](C(=O)O)[C@@]23CCCC2=C2CC[C@@]3(C(=O)O)[C@@]3(C(=O)O)C[C@@]213	5.3%	-6%	0%
O=C(O)c1ccccc1-c1ccccc1C(=O)c1ccccc1	2.4%	-4%	-4%
O=C(O)[C@H](/C=C\c1ccccc1)c1ccccc1	2.1%	8%	-4%
Cc1ccccc1C(=N)c1ccccc1Cc1cccc2ccccc12	1.1%	-11%	-10%
OCc1ccncc1.OCc1ccncc1.[Cl][Pt]([Cl])([Cl])[Cl]	1.2%	-16%	4%
c1ccc2cc(-c3cc(-c4cc(-c5ccc6ccccc6c5)on4)no3)ccc2c1	-15%	-3%	9%

Quoted from the listing:
OCc1ccncc1.OCc1ccncc1.[Cl][Pt]([Cl])([Cl])[Cl] in Cruzain noTriton is entered as 4%
CN(C)CCCc1c2ccccc2nc2ccc(Cl)cc12 in Cruzain noTriton is entered as 3%

Profiles from above. Screens in order: Cruzain Triton | NS1 inh | Cruzain noTriton
`O=C(O)[C@@H]1[C@@H](C(=O)O)[C@@]23CCCC2=C2CC[C@@]3(C(=O)O)[C@@]3(C(=O)O)C[C@@]213` across the screens: 5.3% | -6% | 0%
`c1ccc2cc(-c3cc(-c4cc(-c5ccc6ccccc6c5)on4)no3)ccc2c1` across the screens: -15% | -3% | 9%
`OCc1ccncc1.OCc1ccncc1.[Cl][Pt]([Cl])([Cl])[Cl]` across the screens: 1.2% | -16% | 4%
`CCON=C1C(C)(C)C(C)(C)C(C)(C)C1(C)C` across the screens: 4.0% | 0% | 2%
`O=C(O)c1ccccc1-c1ccccc1C(=O)c1ccccc1` across the screens: 2.4% | -4% | -4%

(continued)
mol	Cruzain Triton	NS1 inh	Cruzain noTriton
CN(Cc1cc(C(C)(C)C)cc(Br)c1O)Cc1cc(C(C)(C)C)cc(Br)c1O	-4.7%	-15%	18%
NC(=O)N[C@H](CC(=O)O)C(=O)O	-2.2%	-3%	1%
CC(C)(C)c1cc2c(O)c(c1)Cc1cc(C(C)(C)C)cc(c1O)Cc1cc(C(C)(C)C)cc(c1O)Cc1cc(C(C)(C)C)cc(c1O)Cc1cc(C(C)(C)C)cc(c1O)Cc1cc(C(C)(C)C)cc(c1O)Cc1cc(C(C)(C)C)cc(c1O)Cc1cc(C(C)(C)C)cc(c1O)C2	-0.6%	-9%	2%
CN(C)S(=O)(=O)c1nc(Cl)c2[nH]cnc2n1	0.2%	-1%	-6%
O=C(O)[C@@H](Cc1c[nH]c2ccccc12)C(=O)NO	-5.9%	17%	-5%
CC(C)(C)CC(C)(C)c1cc(O)c(O)c(CN2CCCCC2)c1	-3.0%	-4%	0%
O=C(c1ccccc1)[C@H](Nc1ccc2ccccc2c1)c1ccccc1	-4.7%	-18%	-5%
C[C@@H]1C[C@H](C)CN(S(=O)(=O)c2cc(Cl)c(Oc3ccc([N+](=O)[O-])cc3Cl)c(Cl)c2)C1	1.8%	-5%	-2%
CN(C)CCCNc1cc(O)c2c(c1O)C(=O)c1ccccc1C2=O	-4.7%	-9%	-6%
N=C(N)SCc1cc(Cl)cc(Cl)c1O	2.6%	-6%	-1%
C=CCNS(=O)(=O)c1ncnc2nc[nH]c12	-1.8%	-1%	-5%

This is a subset (hit frequency here may not be typical).
